From PubChem
Mtb growth: Mycobacterium tuberculosis H37Rv growth inhibition, cell based, confirmatory dose response (AID 1949) | 100,000 compounds, 1.6% hits | inhibition, % at 10 µg/mL, or IC50 in µg/mL where a hit was titrated | most inactive calls were filed without a number and no value below 0 was filed;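 active = confirmed in a dose series; inconclusive = about 50% or more but not retested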;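 also: bacteria grown 7 days with compound before Alamar blue readout; 0% = untreated bacteria and 100% = reference antibiotic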
Active calls of the source: *; i = inactive; ? = inconclusive.

smiles,Mtb growth
O=C(CN(c1ccc(Cl)cc1Cl)S(=O)(=O)c1ccccc1)NC1CCCCCC1,i
Cc1ccc(C)c(C(=O)CN2C3=NCCN3c3ccccc32)c1,i
CCCCOc1ccccc1NC(=O)CCc1ccccc1,i
CCc1cc(=O)oc2cc(OCc3ccccc3Br)c(Cl)cc12,i
CC(=O)c1ccccc1NC(=O)C1C2CCC(O2)C1C(=O)O (centres undefined),6%
CSc1cccc(NC(=O)COc2ccccc2)c1,i
CC1(C)CC2CC(C)(CN2C(=O)C23CCC(C)(C(=O)O2)C3(C)C)C1 (centres undefined),i
COc1ccccc1CNC(=O)CN(c1ccc(I)cc1)S(C)(=O)=O,2%
Cc1nc(-c2cccc(NC(=O)CCc3ccccc3)c2)cs1,i
CCOc1ccccc1NC(=O)C1CCN(S(=O)(=O)c2ccc(Cl)cc2)CC1,i
COc1ccc(Cl)cc1NC(=O)c1cc2ccccc2o1,6%
CCOc1ccc(N2CC(C(=O)Nc3c(C)cc(Br)cc3CC)CC2=O)cc1 (centres undefined),i
O=C(Nc1ccc(I)cc1C(=O)N1CCOCC1)c1ccco1,i
CCc1cc(OCCOCCNCCN)ccc1Cl,28%
COC(=O)c1cc(OC)c(OC)cc1NC(=O)Cc1ccccc1,i
CN(CC(=O)NCc1cccnc1)S(=O)(=O)c1ccc2ccccc2c1,i
C=CCSc1nc2c(c(=O)[nH]1)C(c1cccc(C(F)(F)F)c1)C1=C(CC(C)(C)CC1=O)N2 (centres undefined),i
COc1ccc(Cl)cc1C(=O)NC(=S)Nc1ccc(NC(=O)c2ccccc2)c(C)c1,i
Cc1cccc(CNC(=O)C(=O)Nc2ccccc2C)c1,i
Cc1sc(NC(=O)c2sc3ccccc3c2Cl)c(C#N)c1C,i
C=CCn1c(COc2cccc(C)c2C)nnc1SCC(=O)Nc1cc(Cl)cc(Cl)c1,i
CCOc1ccccc1N(CC(=O)Nc1cccc(N(C)S(C)(=O)=O)c1)S(C)(=O)=O,i
COc1ccc(S(=O)(=O)N(CC(=O)Nc2cc(C(F)(F)F)ccc2Cl)c2ccccc2)cc1,i
S=C(NCc1ccc(Cl)cc1)N1CCN(C/C=C/c2ccccc2)CC1,2µg/mL*
CS(=O)(=O)N(CC(=O)Nc1ccc(F)cc1F)c1cccc(C(F)(F)F)c1,i
COC(=O)c1cc(Br)ccc1NC(=O)c1ccccc1,6%
Cc1cc(Cl)c(S(=O)(=O)NCc2ccco2)cc1OCC(N)=O,i
Cc1occc1C(=O)NCCc1ccccc1,i
Cc1nn(-c2ccccc2)c2c1C1(C(=O)N(C)c3ccccc31)C(C#N)=C(N)O2 (centres undefined),i
COC(=O)c1sc(NC(=O)Cc2ccc(Br)cc2)c(C#N)c1C,1%

Reformatted: results already given.
> Cc1cc(Cl)c(S(=O)(=O)NCc2ccco2)cc1OCC(N)=O
- Mtb growth: i

> Cc1occc1C(=O)NCCc1ccccc1
- Mtb growth: i

Later entries.
smiles,Mtb growth
CCC(C)NC(=S)NNC(=O)c1ccncc1 (centres undefined),3%
CC(Oc1cccc(Cl)c1)C(=O)Nc1ccc(I)cc1 (centres undefined),i
Cc1cc(NC(=O)c2ccc3c(c2)OCCO3)no1,i
CS(=O)(=O)N1CCC(C(=O)Nc2cccc([N+](=O)[O-])c2)CC1,i
C=C(C)c1cccc(C(C)(C)NC(=O)N2CCN(c3ccccc3OC)CC2)c1,2%
O=C(Nc1nc2ccc(S(=O)(=O)N3CCOCC3)cc2s1)C1CCCO1 (centres undefined),i
CC(=O)Nc1c(O)nc(SCC(=O)Nc2cccc(C)c2)[nH]c1=O,i
Cc1ccc(C)c(OCC(=O)Nc2ccc([N+](=O)[O-])cc2C)c1,i
NC(=O)c1ccccc1NC(=S)NC(=O)c1ccc(-c2cc(Cl)ccc2Cl)o1,i
O=C(CSc1nnc(CSc2nc3ccccc3s2)o1)NC1CCCCC1,i
Cc1cc(OCCCCCNCCO)ccc1Cl,i
O=C(CCC1CCCC1)N1CCC(N2CCCCCC2)CC1,i
COc1cc2c(cc1OC)C(C)N(C(=O)c1cc3ccccc3o1)CC2 (centres undefined),i
COc1ccccc1N1CCN(C(=O)CN(c2cc(Cl)ccc2Cl)S(C)(=O)=O)CC1,i
Cc1ccc(C)n1CCc1c[nH]c2ccccc12,?
Cc1ccc(-c2[nH]nc3c2C(c2cccc([N+](=O)[O-])c2)C(C#N)=C(N)O3)c(C)c1 (centres undefined),i
O=C(Nc1ccccc1C(F)(F)F)c1cc(I)ccc1Cl,i
COc1cccc(OC)c1C(=O)Nc1ccc(OC(C)C)cc1,i
COc1cc(CNC2CCCCC2)ccc1OCC(N)=O,i
O=[n+]1cc(C2=CC=CCC2)n([O-])c2c1CCCCC2,i
Cc1c(NC(=O)COc2c(Cl)cc(Cl)cc2Cl)c(=O)n(-c2ccccc2)n1C,i
O=C(Nc1ccc(Br)cc1)C(=S)N1CCOCC1,13%
COc1cc2ccccc2cc1C(=O)NC(=S)Nc1cccc(C)n1,i
CC(C)N(C(C)C)S(=O)(=O)c1ccc(=O)[nH]c1,i
O=C(COc1ccc(Cl)cc1Cl)Nc1ccc2c(c1)OCCO2,i
Cc1ccc(C)n1-c1c(C(=O)O)sc2c1CCCC2,i
Cc1ccc(C)c(-c2csc(NC(=O)CSc3ccccc3)c2C(N)=O)c1,4%
O=C(NCc1ccccc1Cl)c1ccccc1Oc1ccccc1,1%
COC(=O)c1cccc(NC(=O)c2cccc(Cl)c2)c1,11%
Nc1nc(SCC(=O)c2ccc3c(c2)OCCO3)n[nH]1,i
C=CCNC(=S)Nc1ccc(OC)c(OC)c1,i
Cc1ccc(/C(C#N)=C\c2cc(C)n(C)c2C)cc1,i
Clc1ccccc1OCCCOc1cccc2cccnc12,?
O=C(Nc1ccccc1C(=O)NCc1ccccc1)c1ccc(F)cc1,i
O=C(O)CN(c1ccc(F)cc1)S(=O)(=O)c1ccc2c(c1)OCCO2,i
CC(C)C(=O)Nc1ccc(NC(=S)NC(=O)c2cc(Br)ccc2Cl)cc1,i
CCNc1cc(N2CCN(C(=O)c3ccc(OC)cc3)CC2)ccc1[N+](=O)[O-],i
CC(C)CCSc1nc2c(c(=O)n(C)c(=O)n2C)n1Cc1ccccc1Cl,1%
COc1cccc(NC(=O)CC2COc3ccccc3O2)c1 (centres undefined),i
O=[N+]([O-])c1ccccc1-c1nc(-c2cccs2)c(-c2cccs2)[nH]1,46%
CC1(C)C(=O)C2(CCCC2)C(=O)OC1c1cccc([N+](=O)[O-])c1 (centres undefined),3%
Cc1ccc(Cl)cc1NC(=S)Nc1ccc(F)cc1,6%
CC(=O)c1cccc(-n2nnnc2SCC(N)=O)c1,i
CC(C)C(=O)Nc1cccc(NC(=O)c2cc3ccccc3o2)c1,i
COc1ccc(OC)c(C(C)NC(=O)NC23CC4CC(CC(C4)C2)C3)c1 (centres undefined),17%
COC(=O)CCC(=O)Nc1ccccc1I,i
Cc1cc(C)c2c(NC(=S)Nc3ccccc3)n[nH]c2n1,1%
S=C(Nc1ccc(Br)cc1Cl)N1CCOCC1,i
COc1ccc(NC(=O)CN(c2cc(C)ccc2OC)S(C)(=O)=O)cc1Cl,i
CC(C)(C)Cc1nc(-c2ccc([N+](=O)[O-])cc2)no1,i
CCOCCCn1c(-c2ccc(OC)cc2)n[nH]c1=S,i
CC(C)(C)NS(=O)(=O)c1ccc(NC(=S)NC(=O)C2CCCCC2)cc1,i
Cc1ccc(N2CCN(C(=O)CSc3ccccc3)CC2C)cc1 (centres undefined),i
O=c1c2ccccc2nc(/C=C/c2cc(Br)ccc2O)n1CCCO,31%
COc1cc(CO)cc(Cl)c1OCc1ccc(C(=O)O)cc1,i
Cn1c(=O)c2c(n3c(SCc4ccccc4)nnc13)-c1ccccc1CC21CCCCC1,i
CCOC(=O)C(CC(C)C)NC(=O)c1ccc(Cl)cc1Cl (centres undefined),i
Cc1cc(Cl)c(S(=O)(=O)Nc2ccc(S(=O)(=O)N3CCN(C)CC3)cc2)cc1OCC(N)=O,i
CC(C)CC(=O)NC(c1ccccc1)c1c(O)ccc2ccccc12 (centres undefined),i
Cc1cc(C(=O)NCc2ccc(C(=O)O)cc2)no1,i

Further structures follow.
smiles,Mtb growth
O=C(CC(O)(C(F)(F)F)C(F)(F)F)Nc1ccccc1F,i
CC(C)OCCCNC(=O)CSCc1ccc(Br)cc1,i
CS(=O)(=O)N1CCN(C(=S)Nc2ccc(F)c(Cl)c2)CC1,i
C=C1C2(C(=O)O)CCC(C2)C1(C)C (centres undefined),6%
Cn1[nH]c2nc3[nH]n(C)c(=O)c3c(-c3ccccc3)c2c1=O,i
Cc1ccc(S(=O)(=O)N(CC(=O)Nc2ccc(C)c(C)c2)Cc2ccccc2)cc1,5%
Cc1cccc(NC(=O)CN(Cc2ccc(Cl)cc2Cl)S(=O)(=O)c2ccccc2)c1C,i
Cc1cccc(CC2CC(=O)N(c3nc4ccccc4s3)C2=O)c1 (centres undefined),i
CCOC(=O)c1c(N)c(C#N)nn1-c1ccccc1C(=O)OC,i
Cn1c(=O)c2c(nc(NCC3CCCO3)n2C)n(C)c1=O (centres undefined),4%
Cc1c(CCC(=O)O)c(=O)oc2cc(OCc3ccc(Br)cc3)ccc12,0%
CC(O)CNc1ncnc2ccc(Br)cc12 (centres undefined),i
N#C/C(=C\c1ccc(-c2cccc(Br)c2)o1)c1nc2ccccc2c(=O)[nH]1,i
c1ccc(COc2ccc(Oc3nc(N4CCOCC4)nc(N4CCOCC4)n3)nn2)cc1,i
O=C(CSc1nnc2ccc3ccccc3n12)Nc1ccccc1F,i
O=C(Nc1ccc(F)cc1)c1ccccc1Sc1ccccc1[N+](=O)[O-],i
NC(=O)c1ccccc1NC(=O)CSc1ccccn1,1%
COc1ccc(C(=O)N=Nc2c(O)[nH]c3ccc(Br)cc23)cc1,20µg/mL*
CCOc1cc(C(=O)NC(=S)Nc2ccccc2OC)cc(OCC)c1OCC,i
CCc1cccc(NC(=O)c2cccc(C(=O)Nc3cccc(CC)c3)c2)c1,2%
CCN(C(=O)COc1ccccc1C(N)=O)c1ccccc1,i
N=C1C(c2nc3ccccc3c(=O)[nH]2)=C(O)CN1CCc1ccccc1,i
CCCNC(=S)Nc1cc(OC)cc(OC)c1,i
CCOC(=O)c1ccc(NC(=O)c2ccc(S(=O)(=O)N(C)C)cc2)cc1,i
COc1cc(C)ccc1OCCNCc1ccccc1,5%
COc1cc(-c2nnn(Cc3ccccc3C)n2)cc(OC)c1OC,8%
CCCC(=O)c1ccc(OCc2ccccc2F)cc1,2%
CCC(C)NCCCOc1ccc(I)cc1 (centres undefined),i
COc1cc(OC)cc(-c2n[nH]c(=S)n2-c2cc(OC)ccc2OC)c1,5%
COCC(C)NCc1ccc(OC)c(OCc2ccccc2)c1 (centres undefined),i
NC(=O)c1ccccc1NC(=S)NC(=O)c1cccc2c(Br)cccc12,i
N#CCCN(CCC#N)C(=O)c1ccc2c(c1)OCO2,i
Cn1c(CNC(=O)c2ccccc2F)nnc1SCC(=O)N1CCN(c2ccccc2)CC1,i
CC(=O)c1cccc(NC(=S)Nc2ccc(I)cc2)c1,3%
CC(Oc1ccc(/C=C/[N+](=O)[O-])cc1)C(=O)O (centres undefined),i
O=C(Nc1cccc2ccccc12)c1cnsn1,18%
Cc1cc(C(C)(C)C)ccc1OCCOCCNCCN,10%
Cc1cc(C)c(NC(=O)CN2C(=O)c3ccccc3C2=O)c(Cl)c1,i
CC(=O)N1CCN(C(=S)c2ccc(-c3cccc(Cl)c3Cl)o2)CC1,i
Cc1[nH]c(=O)[nH]c(=O)c1NC(=O)c1cccc2c(Br)cccc12,i
O=C(COc1ccc(Cl)cc1Cl)Nc1ccc(Br)cc1C(=O)O,3%
COc1cc(OC)cc(C(=O)Nc2ccc(CSc3ccccc3)cc2C)c1,i
COCCNC(=O)c1ccccc1NC(=O)c1ccccc1N(Cc1ccc(Cl)cc1)S(=O)(=O)c1ccc(C)cc1,i
O=C(COc1ccc(Br)cc1)Oc1ccccc1Cl,i
CN(C)CCCN(CCCN(C)C)Cc1ccc(C(F)(F)F)cc1,i
O=C(CSc1ccccn1)Nc1cccc(F)c1,i
Cc1ccc(S(=O)(=O)N(CC(=O)N2CCC(C(N)=O)CC2)c2cccc(Br)c2)cc1,i
CC(=O)CC(=O)Nc1ccn(-c2ccccc2)n1,11%
COc1ccc(C(=O)NC(=S)Nc2ccc(Oc3ccccc3)cc2)cc1,15%
CCOC(=O)COc1cc(Cl)c(C2C(C(=O)OC)=C(C)NC3=C2C(=O)CCC3)cc1OCC (centres undefined),i
O=C(CN1CCOCC1)Nc1cc(C(F)(F)F)ccc1Cl,0%
CCOC(=O)COc1nc(-c2cccs2)cc(C(F)(F)F)n1,i

Structural class, those above containing a nitro group on carbon.
smiles,Mtb growth
CS(=O)(=O)N1CCC(C(=O)Nc2cccc([N+](=O)[O-])c2)CC1,i
Cc1ccc(C)c(OCC(=O)Nc2ccc([N+](=O)[O-])cc2C)c1,i
Cc1ccc(-c2[nH]nc3c2C(c2cccc([N+](=O)[O-])c2)C(C#N)=C(N)O3)c(C)c1 (centres undefined),i
CCNc1cc(N2CCN(C(=O)c3ccc(OC)cc3)CC2)ccc1[N+](=O)[O-],i
O=[N+]([O-])c1ccccc1-c1nc(-c2cccs2)c(-c2cccs2)[nH]1,46%
CC1(C)C(=O)C2(CCCC2)C(=O)OC1c1cccc([N+](=O)[O-])c1 (centres undefined),3%
CC(C)(C)Cc1nc(-c2ccc([N+](=O)[O-])cc2)no1,i
O=C(Nc1ccc(F)cc1)c1ccccc1Sc1ccccc1[N+](=O)[O-],i
CC(Oc1ccc(/C=C/[N+](=O)[O-])cc1)C(=O)O (centres undefined),i

This is a subset; rates above refer to the full screens.
